D2 PAM = human D2 receptor positive allosteric modulation; DiscoveRx D2 beta-arrestin cells, luminescence, 90 min; 100% = 57 uM dopamine signal; P14416; hit rate 0.23% among 360,000; potentiation, % (test concentration not listed); AID 624464; active = potentiation of 50% or more; inconclusive = 30% to 50%; inactive = 30% or less;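 further: compound concentration not given in the record; tested on top of an EC20 dose of dopamine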
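PathHunter beta-arrestin assay in DiscoveRx D2 cells. Compounds were added with an EC20 of dopamine (50 nM final) for 90 min at 37 deg C. Luminescence was read 1 h after detection reagent, with 57 uM dopamine as the EC100 control.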
D2 agonist = human D2 receptor agonism in beta-arrestin assay; P14416; DiscoveRx PathHunter D2 beta-arrestin, luminescence, 90 min; 100% = 57 uM dopamine signal; activation, % (no concentration beside the values); hit rate 0.084% among 360,000; AID 624465; in the data active = activation above about 40%; inconclusive = about 15% to 40%; inactive = below about 15%; further: compound concentration not given in the record; the text of the record calls up to 30% inactive
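Agonist mode: compounds alone added to overnight-plated D2 PathHunter cells for 90 min at 37 C, with 57 uM final dopamine (EC100) defining full response. Beta-arrestin recruitment detected by chemiluminescent reagent, read after 1 h at ambient temperature.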
CtBP-E1A blk = blocks the CtBP interaction with E1A. AlphaScreen GST-E1A/His-CtBP binding, 1536-well; active compounds read low; control for the full effect not named in the record. activity change, % (concentration not given with the values). hit rate 0.49% among 340,000; in the data active means activity change below about -65%; inconclusive means about -30% to -65%; inactive means above about -30%; further: on the % scale 0 is the no-effect control and ±100 the full control effect
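Homogeneous bead-based format: GST-tagged E1A captured on glutathione donor beads, His-tagged CtBP on nickel acceptor beads; compounds precede bead addition by 2 h at 37 °C.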
TRPML1 ag = activates the human TRPML1 channel; Q9GZU1; TRPML1-expressing cells, Ca2+ dye fluorescence, FDSS; host cell line not named in the record; reference of the full effect not given here; activation, % (no concentration beside the values); hit rate 0.12% among 410,000; AID 624414; in the data active = activation above about 50%; inconclusive = about 30% to 50%; inactive = below about 30%; further: 0% is about no effect; the text of the record puts the active cut at 80%
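TRPML1-DL cells, Tet-induced overnight (~16 h, 37 degrees C), loaded 45-90 min at room temperature with Ca8 no-wash calcium dye plus quencher. FDSS fluorescence: 10 s baseline, compound pin-transfer, 110 s agonist read, then EC80 54-4 (4uM final) and 110 s antagonist read.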
Six1-Eya2 blk = inhibitors of human Six1/Eya2 interaction; AlphaScreen GST-Six1/His-Eya2 binding, biochemical; active compounds read low; control for the full effect not named in the record; Q15475+O00167; AID 651725; activity change, % (no concentration beside the values); hit rate 0.56% among 360,000; in the data active = activity change below about -65%; inconclusive = about -30% to -65%; inactive = above about -30%; further: on the % scale 0 is the no-effect control and ±100 the full control effect
Target sequence (O00167 whole entry, looked up): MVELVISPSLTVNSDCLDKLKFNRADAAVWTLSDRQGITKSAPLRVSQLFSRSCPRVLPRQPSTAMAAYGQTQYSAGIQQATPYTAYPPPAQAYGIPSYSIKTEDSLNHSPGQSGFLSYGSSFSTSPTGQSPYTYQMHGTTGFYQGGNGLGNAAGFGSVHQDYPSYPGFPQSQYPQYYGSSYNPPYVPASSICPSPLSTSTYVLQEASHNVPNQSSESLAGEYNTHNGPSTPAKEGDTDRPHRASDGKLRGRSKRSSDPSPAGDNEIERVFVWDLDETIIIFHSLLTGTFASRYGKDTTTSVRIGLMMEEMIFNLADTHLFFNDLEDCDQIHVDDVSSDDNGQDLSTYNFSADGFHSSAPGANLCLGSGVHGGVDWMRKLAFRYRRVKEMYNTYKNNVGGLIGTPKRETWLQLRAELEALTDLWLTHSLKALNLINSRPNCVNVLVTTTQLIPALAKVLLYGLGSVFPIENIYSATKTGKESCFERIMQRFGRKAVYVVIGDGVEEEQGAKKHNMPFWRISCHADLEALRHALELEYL
Target sequence (Q15475 whole entry, looked up): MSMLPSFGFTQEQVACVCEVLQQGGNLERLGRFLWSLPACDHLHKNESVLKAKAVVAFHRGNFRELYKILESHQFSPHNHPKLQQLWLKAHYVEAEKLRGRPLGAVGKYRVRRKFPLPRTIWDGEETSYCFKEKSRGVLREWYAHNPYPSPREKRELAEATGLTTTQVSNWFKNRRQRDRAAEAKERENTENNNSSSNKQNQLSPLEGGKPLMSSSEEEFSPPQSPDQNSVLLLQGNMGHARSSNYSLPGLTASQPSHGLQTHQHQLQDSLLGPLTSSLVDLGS
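GST-Six1 + His-Eya2 (5X stock: 250/500 nM); Tris pH 8.0, 300 mM NaCl, 0.05% BSA, 0.02% Tween 20; GSH donor/Ni acceptor beads; 1 h 37 °C dark; AlphaScreen readout.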
PINK1 modulator = changes PINK1 expression; PINK1 immunofluorescence, high-content cytometry, 24 h; Potency, µM (doses to about 76.6 µM), without a hit: at the top dose activation (PINK1 increase), hits mostly activators; hit rate 0.2% among 410,000; active = well fitted activation curve with a large enough effect; inconclusive = small, poorly fitted or top-dose-only effect; inactive = flat fitted curve, though single readings scatter; cell line not stated here;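 further: potency means the concentration at half of the fitted maximal effect; % of control where 0% means no effect; nearly all actives have a fitted effect of over 65% in size; a mitochondrial uncoupler was the plate control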
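PINK1 protein, normally rapidly degraded, was detected by immunofluorescence after 24 hour compound treatment of a stable cell line. Titration data (5 concentrations) came from laser-scanning cytometry, with CCCP-treated wells as controls.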
* hit, by the source's call; & = joins results of further samples; [ ] = dose if it differs, or a comment. Random draw from the library; 1.3% or so of the library scored in one or more.

For O=C(CSc1nc2ccccc2s1)Nc1ccc2c(c1)oc1ccccc12 the results were D2 PAM -4, D2 agonist -0.7, CtBP-E1A blk -19, TRPML1 ag 0.9, Six1-Eya2 blk 8 and PINK1 modulator 8.0%.
For COc1ccc(C2SCCN2C(=O)c2ccc([N+](=O)[O-])cc2)cc1 (stereo not drawn) the results were D2 PAM -2, D2 agonist -2.0, CtBP-E1A blk 0, TRPML1 ag 0.2, Six1-Eya2 blk -3 and PINK1 modulator -0.1%.
`CCn1nc(C)c(CNC(=O)Nc2ccccc2C(=O)OC)c1C` gave D2 PAM -4, D2 agonist -1.9, CtBP-E1A blk -20, TRPML1 ag -0.3, Six1-Eya2 blk -15 and PINK1 modulator -0.3%.
CC(C)NC(=O)/C(C#N)=C\c1ccc(N(C)C)c(Br)c1 was read as D2 PAM -7, D2 agonist -3.5, CtBP-E1A blk -6, TRPML1 ag 0.7, Six1-Eya2 blk 20 and PINK1 modulator 6.1%.
Cn1nc([N+](=O)[O-])c2c(-c3nc4ccccc4s3)c(N)n(C3CCCCC3)c2c1=O was read as D2 PAM -17, D2 agonist -3.8, CtBP-E1A blk -6, TRPML1 ag -0.6, Six1-Eya2 blk -4 and PINK1 modulator 4.2%.
Screening Cc1ccc(C(=O)Nc2cccc(S(=O)(=O)N(C)c3ccccc3)c2)o1 returned D2 PAM -18, D2 agonist -2.0, CtBP-E1A blk -2, TRPML1 ag 3.7, Six1-Eya2 blk -6 and PINK1 modulator 3.8%.
`Cc1ccccc1N1CCN(c2ccc(NC(=O)C3CCCCC3C(=O)O)cc2)CC1` (stereo not drawn) gave D2 PAM -2, D2 agonist -4.5, CtBP-E1A blk 6, TRPML1 ag -0.1, Six1-Eya2 blk 0 and PINK1 modulator 1.3%.
`Cn1nc(C(F)(F)F)c(CNC(=O)C(C)(C)CCl)c1N1CCOCC1` gave D2 PAM 0, D2 agonist -0.8, CtBP-E1A blk -3, TRPML1 ag 0.1, Six1-Eya2 blk 5 and PINK1 modulator -1.1%.
`CCOc1ccc(S(=O)(=O)Nc2ccc(C(=O)NCCCN3CCOCC3)cc2)cc1` gave D2 PAM -13, D2 agonist -4.9, CtBP-E1A blk -3, TRPML1 ag 0.5, Six1-Eya2 blk 3 and PINK1 modulator 1.1%.
CC12CCC(C(=O)n3c1nc1ccccc13)C2(C)C (stereo not drawn) was read as D2 PAM -8, D2 agonist -2.4, CtBP-E1A blk 0, TRPML1 ag 0.6, Six1-Eya2 blk 2 and PINK1 modulator -0.1%[38.3 µM].
Screening CCCCc1cc(=O)oc2c(C)c(OCC(=O)N3CCCC3)ccc12 returned D2 PAM 9, D2 agonist 2.0, CtBP-E1A blk -3, TRPML1 ag 1.1, Six1-Eya2 blk 7 and PINK1 modulator 2.2%.
For Cc1cccc(CSc2nc3c(c(=O)[nH]2)CCC3)c1 the results were D2 PAM -2, D2 agonist -2.7, CtBP-E1A blk 4, TRPML1 ag 1.8&1.6, Six1-Eya2 blk 5 and PINK1 modulator -0.7%&2.7%.

2 neighbouring compounds out of the list so far, for reference:
For COc1ccc(C2SCCN2C(=O)c2ccc([N+](=O)[O-])cc2)cc1 (stereo not drawn) the results were D2 PAM -2, D2 agonist -2.0, CtBP-E1A blk 0, TRPML1 ag 0.2, Six1-Eya2 blk -3 and PINK1 modulator -0.1%.
`CCn1nc(C)c(CNC(=O)Nc2ccccc2C(=O)OC)c1C` gave D2 PAM -4, D2 agonist -1.9, CtBP-E1A blk -20, TRPML1 ag -0.3, Six1-Eya2 blk -15 and PINK1 modulator -0.3%.

More compounds
Cc1cc2nc(-c3ccc(F)cc3)c(CC3CCCCC3)n2c(C)c1Br was read as CtBP-E1A blk 14, TRPML1 ag 1.5, Six1-Eya2 blk 9 and PINK1 modulator 7.7%.
`COC(=O)C1=C(C)N(c2ccc(Cl)cc2)/C(=C/c2ccc(O)cc2)C1=O` gave D2 PAM -5, D2 agonist 8.6, TRPML1 ag 1.2, Six1-Eya2 blk 1 and PINK1 modulator 9.4%.
CCN1C(=O)S/C(=C/c2ccc(Oc3ccc([N+](=O)[O-])cn3)c(OC)c2)C1=O was read as D2 PAM 0, D2 agonist -4.0, TRPML1 ag 2.0, Six1-Eya2 blk -12 and PINK1 modulator 2.3%.
Screening O=C(O)c1ccc(S(=O)(=O)N(Cc2ccccc2)Cc2ccccc2)cc1 returned D2 PAM -14, D2 agonist -12, CtBP-E1A blk -3, TRPML1 ag -0.4, Six1-Eya2 blk 3 and PINK1 modulator 2.2%.
For O=C1NC(=O)C2(COC(c3cccnc3)OC2)S1 (stereo not drawn) the results were D2 PAM -3, D2 agonist -3.5, CtBP-E1A blk -8, TRPML1 ag 0.0, Six1-Eya2 blk 5 and PINK1 modulator 1.0%.
`Cc1cccc(NS(=O)(=O)c2ccc(C)c(C(=O)N(C)C3CCN(C)CC3)c2)c1` gave D2 PAM 10, D2 agonist -4.6, CtBP-E1A blk 9, TRPML1 ag -0.1, Six1-Eya2 blk 5 and PINK1 modulator 0.9%.
Screening CC(=O)N1CCOc2ccc(S(=O)(=O)NCc3ccccc3Cl)cc21 returned D2 PAM -20, D2 agonist -0.2, CtBP-E1A blk 3, TRPML1 ag -0.6, Six1-Eya2 blk 3 and PINK1 modulator 2.3%.
O=c1[nH]c2cccc(Cl)c2n(CCNc2ncc(C(F)(F)F)cc2Cl)c1=O was read as D2 PAM 0, D2 agonist 1.3, CtBP-E1A blk 3, TRPML1 ag 1.6, Six1-Eya2 blk -2 and PINK1 modulator 3.4%.
`Cc1nnc(SC(C)C(=O)N2CCc3ccccc32)s1` (stereo not drawn) gave D2 PAM -2, D2 agonist -1.7, CtBP-E1A blk 1, TRPML1 ag -0.2, Six1-Eya2 blk 3 and PINK1 modulator -3.3%.
CC(=O)c1c(C)[nH]c(C(=O)OCC(=O)NNC(=O)c2ccc([N+](=O)[O-])cc2)c1C was read as D2 PAM -1, D2 agonist -1.6, CtBP-E1A blk -9, TRPML1 ag -0.1, Six1-Eya2 blk -7 and PINK1 modulator -1.4%.
Screening Cc1ccccc1NC(=O)Cc1nnc(N)s1 returned D2 PAM 2, D2 agonist -2.5, CtBP-E1A blk 0, TRPML1 ag -0.3, Six1-Eya2 blk -6 and PINK1 modulator 2.5%.
For Cc1cc(C(=O)COc2ncnc3sccc23)c(C)n1C the results were D2 PAM 7, D2 agonist -0.7, CtBP-E1A blk -2, TRPML1 ag 0.1, Six1-Eya2 blk -3 and PINK1 modulator 0.8%.

Three structures from above, ordered by heavy-atom count, largest number first:
CCN1C(=O)S/C(=C/c2ccc(Oc3ccc([N+](=O)[O-])cn3)c(OC)c2)C1=O was read as D2 PAM 0, D2 agonist -4.0, TRPML1 ag 2.0, Six1-Eya2 blk -12 and PINK1 modulator 2.3%.
`COC(=O)C1=C(C)N(c2ccc(Cl)cc2)/C(=C/c2ccc(O)cc2)C1=O` gave D2 PAM -5, D2 agonist 8.6, TRPML1 ag 1.2, Six1-Eya2 blk 1 and PINK1 modulator 9.4%.
`Cc1nnc(SC(C)C(=O)N2CCc3ccccc32)s1` (stereo not drawn) gave D2 PAM -2, D2 agonist -1.7, CtBP-E1A blk 1, TRPML1 ag -0.2, Six1-Eya2 blk 3 and PINK1 modulator -3.3%.

Continued:
`COc1ccc(NC(=O)Nc2ccc(F)c(Cl)c2)cc1` gave D2 PAM -6, D2 agonist 6.3, TRPML1 ag 0.9, Six1-Eya2 blk -5 and PINK1 modulator 3.5%.
Cc1ccc(N/N=C(\C#N)C(N)=S)c(C)c1 was read as D2 PAM -9, D2 agonist -1.0, CtBP-E1A blk 0, TRPML1 ag 0.0, Six1-Eya2 blk -10 and PINK1 modulator 2.8%.
`Cc1sc(NC(=O)c2ccco2)c(C(c2ccccc2)N2CCC(C)CC2)c1C` (stereo not drawn) gave D2 PAM -4, D2 agonist -5.6, CtBP-E1A blk -2, TRPML1 ag 0.4, Six1-Eya2 blk -2 and PINK1 modulator 3.5%.
Screening O=C(CSc1nnc(CCCN2C(=O)c3cccc4cccc(c34)C2=O)n1-c1ccccc1)N1CCN(CCO)CC1 returned D2 PAM -7, D2 agonist -3.3, CtBP-E1A blk 3, TRPML1 ag -0.7, Six1-Eya2 blk -7 and PINK1 modulator 2.9%.
For CC(OC(=O)c1ccc(NC(N)=O)cc1)C(=O)Nc1ccc2c(c1)OCCO2 (stereo not drawn) the results were D2 PAM 2, D2 agonist 3.3, CtBP-E1A blk 3, TRPML1 ag 0.9, Six1-Eya2 blk 7 and PINK1 modulator 1.2%.
Screening Cc1ccc2nnn(Cc3cccc(C(C)(C)C)c3O)c2c1 returned D2 PAM -8, D2 agonist -1.4, CtBP-E1A blk 6, TRPML1 ag 0.5, Six1-Eya2 blk 2 and PINK1 modulator inconclusive.
CCC(=O)Nc1cccc(NC(=O)CN2CCN(c3ccccc3OC)CC2)c1 was read as D2 PAM -34, D2 agonist -3.4, CtBP-E1A blk -1, TRPML1 ag -0.7, Six1-Eya2 blk -9 and PINK1 modulator -2.7%.
CCCN(C(=O)CCc1ccc(OC)cc1)c1c(N)n(Cc2ccccc2)c(=O)[nH]c1=O was read as D2 PAM -1, D2 agonist -1.3, CtBP-E1A blk 1, TRPML1 ag -0.1, Six1-Eya2 blk 4 and PINK1 modulator -0.3%.
CN1CCN(C(=O)/C=C/c2ccc(Cl)cc2)CC1 was read as D2 PAM -16, D2 agonist -4.1, CtBP-E1A blk 0, TRPML1 ag -0.3, Six1-Eya2 blk 5 and PINK1 modulator -0.8%.
For COc1ccc(NC(=O)COC(=O)/C=C/c2ccccc2[N+](=O)[O-])cc1OC the results were D2 PAM inconclusive, D2 agonist -1.8, CtBP-E1A blk 0, TRPML1 ag 0.2, Six1-Eya2 blk -8 and PINK1 modulator 0.9%.
For CCOC(=O)C1CCCN(CC(=O)N(C)c2c(N)n(Cc3ccccc3)c(=O)[nH]c2=O)C1 (stereo not drawn) the results were D2 PAM -11, D2 agonist -2.1, TRPML1 ag -1.0, Six1-Eya2 blk -3 and PINK1 modulator 0.9%.
Screening CC1CC(C)CN(C(=O)COC(=O)Cc2ccc(Cl)cc2)C1 (stereo not drawn) returned D2 PAM -4, D2 agonist -0.7, CtBP-E1A blk -11, TRPML1 ag -0.5, Six1-Eya2 blk -22 and PINK1 modulator -0.4%.
`CCN1CCN(c2ccc(S(=O)(=O)N3CCCCC3)cc2NC(=O)c2ccc(OC(F)F)cc2)CC1` gave D2 PAM -19, D2 agonist 4.2, CtBP-E1A blk -17, TRPML1 ag 0.4, Six1-Eya2 blk -6 and PINK1 modulator 7.7%.
Screening Cc1nc2ccccc2c(=O)n1/N=C/c1cn(-c2ccccc2)nc1-c1cccs1 returned D2 PAM 7, D2 agonist -2.7, CtBP-E1A blk 3, TRPML1 ag 1.4, Six1-Eya2 blk 1 and PINK1 modulator 1.7%.
For C/C(=C\c1cccc(Cl)c1)C(=O)c1c(C)cc(C)[nH]c1=O the results were D2 PAM 0, D2 agonist -0.6, CtBP-E1A blk -1, Six1-Eya2 blk 3 and PINK1 modulator -1.0%.
